NPYLR7 agonist: mosquito NPYLR7 agonism. HEK293T NPYLR7/Galpha15, GCaMP6s calcium fluorescence. activation, % at 10 µM. 270,000 compounds, 0.15% hits; in the data active means activation above about 40%;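 further: 0% = vehicle and 100% = reference agonist at the receptor; some compounds past the cut are filed as inactive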
NPYLR7 agonist max-min: also measured in NPYLR7 agonist; calls as there; activation, %; measured here: Max-Min RFU normalised activation; some inactives read as strong as hits;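 span of the calcium signal over five minutes; 0% = vehicle and 100% = native peptide agonist; compound fluorescence can raise it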
Starred values were filed as active, the others as inactive; & = joins results of further samples. Only part of the results is shown, so the mix of outcomes need not match the whole.

SMILES	NPYLR7 agonist	NPYLR7 agonist max-min
O=c1[nH]nc(SCc2c(Cl)cccc2[N+](=O)[O-])n1-c1ccccc1	-2	25
O=C(NC1CCCC1)c1cnn2c(C(F)(F)F)cc(-c3ccc(Br)cc3)nc12	5	2
O=C(C1COc2ccccc2O1)N(Cc1cccnc1)c1nc2c(F)cc(F)cc2s1 (stereo unspecified)	-6	1
CC(C)CNC(=O)CN1CCNCC1	-1	11
CC(C)c1nnc(NC(=O)C2CC3CCCC(C2)C3=O)s1 (stereo unspecified)	8	5
CC(NC(=O)C1CCN(S(=O)(=O)c2c(Cl)cccc2Cl)CC1)c1ccccn1 (stereo unspecified)	0	2
CC1CN(c2ccc(Br)cc2)NC1=O (stereo unspecified)	-5	-6
CCCSc1ncc(CN2CCN(c3ncnc4nc[nH]c34)CC2)cn1	-4	-6
O=C(NC(c1ccccc1)c1ccccc1)C1CCC(=O)N(CCN2CCOCC2)C1 (stereo unspecified)	4	0
CCOC(=O)N1CCN(C(=O)c2cc(-c3ccc(OC)cc3)nc3cc(C(C)(C)C)nn23)CC1	8&11	6&22
Cc1ccc(C)c(NCN2C(=O)c3cc(Cl)c(Cl)cc3C2=O)c1	10	10
CCN(C(=O)c1nnn(-c2ccc3ncccc3c2)c1C)C1CCCC1	8	7
CCc1nc(CN(C)C(=O)c2cc(-c3ccccc3)no2)no1	11	7
COc1ccc(OC)c(/C=C/C(=O)N2CCS(=O)(=O)c3ccccc32)c1	-2	-4
C=CCN1C(=O)/C(=C2\SC(=S)N(C)C2=O)c2ccccc21	-11	-16
Cc1c(C(=O)N2CCN(C(=O)Nc3cccc4ccccc34)CC2)cc(-c2ccc(F)cc2)n1-c1ccccc1	-2	4
COc1ccc(-c2nc(OCc3ccc(F)cc3)nn2-c2ccc(NC(=O)c3ccco3)cc2)cc1	1	15
COc1ccccc1NC(=O)N1CCN(c2nc(-c3cccc(C)c3)nc(C)c2Cc2ccccc2)CC1	-1	5
CC(C)N1Cc2ccccc2N(CC(C)(C)O)CCC1=O	1	7
CN1CCC(NC(=O)/C=C(/c2ccccc2)C(F)(F)F)CC1	4	1

Look-ups from the list.
NPYLR7 agonist with COc1ccc(OC)c(/C=C/C(=O)N2CCS(=O)(=O)c3ccccc32)c1 is entered as -2
NPYLR7 agonist max-min with CCc1nc(CN(C)C(=O)c2cc(-c3ccccc3)no2)no1 is entered as 7
NPYLR7 agonist with COc1ccc(-c2nc(OCc3ccc(F)cc3)nn2-c2ccc(NC(=O)c3ccco3)cc2)cc1 is entered as 1

The listing picks up; the 3 compounds before the break are reprinted first.
SMILES	NPYLR7 agonist	NPYLR7 agonist max-min
COc1ccccc1NC(=O)N1CCN(c2nc(-c3cccc(C)c3)nc(C)c2Cc2ccccc2)CC1	-1	5
CC(C)N1Cc2ccccc2N(CC(C)(C)O)CCC1=O	1	7
CN1CCC(NC(=O)/C=C(/c2ccccc2)C(F)(F)F)CC1	4	1
COC(=O)c1c(C)[nH]c(C(=O)OCC(=O)c2ccco2)c1C	15	7
CCc1c(C(=O)NC[C@H]2CCCO2)[nH]c2ccccc12	9	3
CCCc1ncn(Cc2nc(-c3sccc3C)oc2C)n1	8	9
Cc1cc(N2CCC(C)CC2)c2nncn2n1	-15	-20
Cc1nc2ccccc2nc1N1CCN(C(=O)c2ccc(F)cc2C(F)(F)F)CC1	14	7
Cc1cnc(C)c(-c2cc(O)c3c(c2)CN(C(=O)C2COCCN2)CCO3)n1 (stereo unspecified)	0	8
Cc1cccc2ncc(C(=O)N[C@H]3C[C@H]4CN(C)CCN4C3)c(=O)n12	6	3
Nc1cc(-c2cccc(C(F)(F)F)c2)nn1-c1ccc(C(=O)N[C@@H]2CCCc3ccccc32)cc1	-3	-5
COc1ccc(N2CCN(c3cc(-c4ccccc4)nc(SCc4ccc(C(=O)NCC(C)C)cc4)n3)CC2)cc1	11	16
CC(C)(C)NC(=O)Cn1nc(C(F)(F)F)c2c1CCC2	-3	-6
Cc1nn(C)c2ncc(CNCC3(c4ccccc4)CCOCC3)cc12	4	7
Cn1ccnc1C(NC(=O)c1cn2c(n1)CNCC2)C1CC1 (stereo unspecified)	5	1
CN(Cc1ccco1)c1nc(CN2CCOCC2)nc2scc(-c3cccs3)c12	16	11
COc1cccc(-c2nc(OCC(C)C)nn2-c2cccc(NC(=O)CC(C)C)c2)c1	3	2
CNC(=O)c1cccc(Nc2nccn3ccnc23)c1	3	3
O=C(N1CCN(c2nccc(-c3ccc4c(c3)OCO4)n2)CC1)C(F)(F)C(F)(F)C(F)(F)F	0	11
CCOC(=O)c1nn(-c2ccc(C(=O)OC)cc2)cc1O	-8	-13
COc1cc(Nc2ccn3nccc3n2)cc(OC)c1OC	0	1
O=C(CCc1ccccc1)N1CCCC(OCc2cccc(Cl)c2)C1 (stereo unspecified)	-13	-3
O=C(C1CCCC1)N1CCN(c2nc(N3CCCC3)nc(-n3ccnc3)n2)CC1	-17	-23

Entries of single compounds, looked up by structure. Order of values: NPYLR7 agonist	NPYLR7 agonist max-min
CN(Cc1ccco1)c1nc(CN2CCOCC2)nc2scc(-c3cccs3)c12 is listed with 16	11
COc1cc(Nc2ccn3nccc3n2)cc(OC)c1OC is listed with 0	1
Cc1nn(C)c2ncc(CNCC3(c4ccccc4)CCOCC3)cc12 is listed with 4	7
COc1ccc(N2CCN(c3cc(-c4ccccc4)nc(SCc4ccc(C(=O)NCC(C)C)cc4)n3)CC2)cc1 is listed with 11	16
Cc1cc(N2CCC(C)CC2)c2nncn2n1 is listed with -15	-20

Further structures:
SMILES	NPYLR7 agonist	NPYLR7 agonist max-min
Cc1cccc2[nH]c(CCNC(=O)c3ccccc3-c3ncc[nH]3)nc12	25	14
CCc1cc2c(NCc3ccco3)ncnc2s1	-5	-4
Fc1cc(F)c(F)c(-n2ncc3c2ncn2nc(-c4ccccc4)nc32)c1F	2	2
COc1ccc(NC(C(=O)c2c[nH]c3ccccc23)c2ccccc2)cn1 (stereo unspecified)	15	9
CC(=NN1CCN(Cc2ccc(Cl)cc2)CC1)c1ccccc1O	-5	-11
O=C(CN1CCCSc2ccccc21)NCc1ccco1	-2	-4
COc1cccc(-c2cc(-c3ccc(C(=O)NC(C)c4ccc(Br)cc4)cc3)[nH]n2)c1 (stereo unspecified)	0	8
COc1cccc(-c2ccc3nnc(SC)n3n2)c1	-16	-14
O=C(O)C1Cc2ccccc2O1 (stereo unspecified)	1	2
CCCCn1c(-c2nnc(CC)o2)cc2ccccc21	6	4
Fc1cccc(F)c1Nc1ccc2c(-c3ccccc3)noc2n1	4	2
CC(C)CC1(C2CCN(C(=O)c3ccc(F)c(Cl)c3)CC2)NC(=O)N(Cc2cccs2)C1=O (stereo unspecified)	4	-1
Fc1ccc2nc(Cl)sc2c1	-6	-18
Cc1ccc(C)c(CSc2ncc(CO)n2Cc2ccc(F)cc2)c1	1	-2
Clc1cccc(CNCC2CC(c3ccc4c(c3)OCO4)=NO2)c1 (stereo unspecified)	10	7
Cn1c(-c2cccc(C(F)(F)F)c2)cc2c(Nc3ccncc3)nccc21	-5	-8
C#CCOCC(O)CN(Cc1ccc(F)cc1)Cc1cc(C)ccc1C (stereo unspecified)	17	29
C=CCN(Cc1ccc(Br)s1)c1ncnc2sc3c(c12)CCC3	-5	-7
O=C(N[C@@H](CO)[C@H](O)c1ccc([N+](=O)[O-])cc1)C(Cl)Cl	-4&-1	-8&-4
Cc1onc(-c2ccccc2)c1C(=O)N(Cc1nccn1C)C1CC1	1	-1
O=C(O)C1CCCN1c1nc(C2CC2)cc(C(F)(F)F)n1 (stereo unspecified)	1	10
Cc1ccc(C2NC(=O)c3c(sc4c3CCN(C)C4)N2)s1 (stereo unspecified)	29	17
COc1cccc2cc(-c3nnc(Nc4cc(C(F)(F)F)ccc4Cl)s3)c(=O)oc12	-2	2
CCCN(CC(=O)N(CCc1c[nH]c2ccccc12)Cc1ccc(C(F)(F)F)cc1)C(=O)Nc1c(C(C)C)cccc1C(C)C	23	31
CN1CCN(n2c3c(c(SCC(=O)Nc4ccccc4[N+](=O)[O-])nc2=O)CCCC3)CC1	-6	-12
COc1ccccc1N1CCN(C(=O)c2cc(-c3ccc(C)c(C)c3)nn2-c2cc(C)ccc2C)CC1	-3	2
COc1ccc(NC(=O)N2CCN(c3cc(Oc4ccc(F)c(F)c4)ncn3)CC2C)cc1 (stereo unspecified)	4	9
CN1CCCC2(CCN(C(=O)CC34CC5CC(CC(O)(C5)C3)C4)C2)C1=O (stereo unspecified)	-1	-7
CNC(=S)N(CCc1c(C)[nH]c2ccc(F)cc12)Cc1ccncc1	-2	-3
COCc1c(Br)c(C)nc(OCC(=O)N/N=C\c2ccc(N(C)C)cc2)c1C#N	-6	-8
O=C1C(=O)N(C2CCCC2)C(=O)N1CN1CCN(Cc2cccs2)CC1	1	0
Cc1ccccc1C1CC(=O)c2cnc(N3CCN(c4ccccc4)CC3)nc2C1 (stereo unspecified)	0	-1
Cc1ccccc1NCC(O)COc1ccc(OCC(O)CNc2ccccc2C)cc1 (stereo unspecified)	-3	-4
COc1ccc(OC)c(NC(=O)C2(C)CCN2C(=O)COc2ccc(Cl)cc2)c1 (stereo unspecified)	12	10
COc1ccc(C(=O)CN2CCN(C(=O)c3cccnc3)CC2)cc1	4	1
COc1ccc(NC(=O)N2CCc3cc(OC)c(OC)cc3C2c2c(F)cccc2Cl)c(OC)c1 (stereo unspecified)	19	8
CC(C)C(=O)N1CCN(c2ccc(-n3cccn3)nn2)CC1	8	7
CCOC(=O)N1CCN(C(c2cccc(OC)c2)C2Sc3nc(C)nn3C2=O)CC1 (stereo unspecified)	5	4
CN1CC[C@H](N(Cc2ccccc2)C(=O)CCc2ccccc2)C[C@H](O)C1	8	16
Cc1ccc(CSC2=NCCN2C(=O)c2ccc(S(=O)(=O)N(C)C)cc2)cc1	0	-4

Pulled by compound from the list above (3):
SMILES	NPYLR7 agonist	NPYLR7 agonist max-min
COc1ccc(NC(=O)N2CCc3cc(OC)c(OC)cc3C2c2c(F)cccc2Cl)c(OC)c1 (stereo unspecified)	19	8
COc1ccc(OC)c(NC(=O)C2(C)CCN2C(=O)COc2ccc(Cl)cc2)c1 (stereo unspecified)	12	10
CN1CCCC2(CCN(C(=O)CC34CC5CC(CC(O)(C5)C3)C4)C2)C1=O (stereo unspecified)	-1	-7

More entries
SMILES	NPYLR7 agonist	NPYLR7 agonist max-min
CCCCOC(=O)c1ccccc1NC(=O)N[C@@H](C)C(=O)N1CCC(C(=O)N2CCOCC2)CC1	30	38
Cc1ccc(Cc2nc(N3CCCN(C(=O)CCC4CCCC4)CC3)c3c(-c4ccc5ccccc5c4)noc3n2)cc1	16	21
COC(=O)c1ccc(/C=C2\C(=O)NC(=S)N(c3ccc(OC)cc3)C2=O)cc1	6	16
Cc1ccc(C(=O)C2CCN(C(C)c3ncc(C(C)(C)C)o3)CC2)cc1 (stereo unspecified)	1	41
Cc1ccc(Cn2ncc3c(Nc4ccc(C)c(C)c4)ncnc32)cc1	1	-1
COC(=O)[C@@H](NC(=O)c1noc(-c2cc(F)cc(F)c2)n1)C(C)(C)C	8	6
COc1cccc(C(=O)N(Cc2nccn2Cc2ccc(Cl)c(Cl)c2)CC2CC2)c1	20	29
CCOc1ccc2oc(C)c(C(=O)N3C[C@@H](N)C[C@H]3C(=O)NC(C)C)c2c1	12	9
CN=C(Nc1ccc(Cl)c(Cl)c1)c1ccco1	7	11
Cc1cnc(NCCNC(=O)c2cccnc2)nc1N(C)C	2	1
Cn1c(=O)[nH]c(=O)c2c1nc(SCc1ccccc1Cl)n2Cc1ccccc1	-1	14
OCC1(Cc2ccccc2)CCN(c2cc(N3CCOCC3)ncn2)CC1	9	6

Assay outcomes as filed in PubChem.
